KCNQ2 block: KCNQ2 potassium channel inhibitors, primary screen, cell-based, CHO-K1, FluxOR thallium flux, B-score (AID 2156); Potassium voltage-gated channel subfamily KQT member 2 (Rattus norvegicus), O88943; 20 min; active compounds read low; only compounds with negative scores are shown here; some inactives read as strong as hits; B-score at 10 µM; 310,000 tested, 1.1% active;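 active means fluorescence ratio B-score at most minus 3 library SDs, with starting brightness B-score within 2 library SDs, cut at about -5.5 in these data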
Target sequence (O88943 whole entry, looked up): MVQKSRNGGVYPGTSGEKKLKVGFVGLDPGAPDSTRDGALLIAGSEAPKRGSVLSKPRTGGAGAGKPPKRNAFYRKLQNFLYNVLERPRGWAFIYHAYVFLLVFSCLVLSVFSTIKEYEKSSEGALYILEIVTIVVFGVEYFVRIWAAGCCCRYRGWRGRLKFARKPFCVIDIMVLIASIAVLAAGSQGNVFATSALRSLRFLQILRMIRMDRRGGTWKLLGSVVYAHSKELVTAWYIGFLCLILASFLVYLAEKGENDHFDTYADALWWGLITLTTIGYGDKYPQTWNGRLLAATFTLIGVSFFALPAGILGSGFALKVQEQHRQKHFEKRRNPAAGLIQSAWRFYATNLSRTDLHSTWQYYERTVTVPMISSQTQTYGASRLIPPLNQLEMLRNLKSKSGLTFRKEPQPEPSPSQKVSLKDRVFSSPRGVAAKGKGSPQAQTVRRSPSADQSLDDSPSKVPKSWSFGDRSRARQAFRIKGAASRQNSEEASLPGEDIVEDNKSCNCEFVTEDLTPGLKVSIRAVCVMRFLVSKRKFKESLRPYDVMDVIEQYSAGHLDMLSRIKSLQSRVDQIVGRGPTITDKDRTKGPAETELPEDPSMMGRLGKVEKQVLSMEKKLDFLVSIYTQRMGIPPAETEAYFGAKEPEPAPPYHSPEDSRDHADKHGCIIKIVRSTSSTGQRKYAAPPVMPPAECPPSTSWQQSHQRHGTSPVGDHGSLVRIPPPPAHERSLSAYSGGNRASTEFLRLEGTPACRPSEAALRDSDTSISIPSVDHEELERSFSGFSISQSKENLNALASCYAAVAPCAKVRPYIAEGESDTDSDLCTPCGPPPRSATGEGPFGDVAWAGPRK
KCNQ2 block baseline: also measured in KCNQ2 block; calls as there; B-score; measured here: initial fluorescence intensity artifact check;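 brightness before thallium and not channel activity; 0 = typical well and far values either way flag optical interference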
Active calls of the source: *; i = inactive. An excerpt. The share of hits here may be higher or lower than overall.

SMILES	KCNQ2 block	KCNQ2 block baseline
COC(=O)C1=C(O)/C(=C\c2ccc(OCC(=O)Nc3ccc(OC)cc3)cc2)N=C1C	i	2.13
O=C(c1cc(F)ccc1F)C1CCCN(C(=O)c2ccc(F)cc2Cl)C1 (stereo not drawn)	i	-2.46
Cc1nn(Cc2ccc(Cl)c(Cl)c2)c(C)c1NC(=O)c1cn(-c2ccccc2)nc1-c1ccccc1	i	-2.57
O=C(c1cc(F)ccc1F)N1CCC(N2CCC(C(=O)N3CCCC3)CC2)CC1	i	-0.22
CC(C)(CC(=O)O)CC(=O)NCc1c(Cl)cccc1Oc1ccccc1	i	-1.08
O=CN1CCN(C(=S)Nc2ccc(OC(F)F)cc2)CC1	i	0.23
CC1CCN(CC(=O)Nc2ccccc2C(=O)c2ccccc2)CC1	i	-0.55
CCN1c2ccccc2-c2nc3ccccc3n2C1c1cccs1 (stereo not drawn)	i	0.81
CCCC(C)NC(=O)c1ccc(-c2ccccc2)cc1 (stereo not drawn)	i	1.26
O=C(/C=C/c1ccccc1Br)c1ccc2c(c1)OCO2	-6.85*	0.02*
CCN1CCN(Cc2nc3c(c(=O)n(C)c(=O)n3C)n2C(C)C(C)=O)CC1 (stereo not drawn)	i	0.32
Cc1cccc(-c2nc(CN3CCCC(C(=O)NC4CCCC4)C3)c(C)o2)c1 (stereo not drawn)	i	-0.31

Compound profiles, from the list above. Screens in order: KCNQ2 block | KCNQ2 block baseline
Record of CC(C)(CC(=O)O)CC(=O)NCc1c(Cl)cccc1Oc1ccccc1 = i | -1.08
Record of O=CN1CCN(C(=S)Nc2ccc(OC(F)F)cc2)CC1 = i | 0.23
Record of Cc1nn(Cc2ccc(Cl)c(Cl)c2)c(C)c1NC(=O)c1cn(-c2ccccc2)nc1-c1ccccc1 = i | -2.57
Record of Cc1cccc(-c2nc(CN3CCCC(C(=O)NC4CCCC4)C3)c(C)o2)c1 (stereo not drawn) = i | -0.31

Other structures follow:
SMILES	KCNQ2 block	KCNQ2 block baseline
CC1=C(CC[C@@H](C)CO)OC2CC3C4CCC5CC(O)CCC5(C)C4CC(=O)C3(C)C12 (stereo partly drawn)	i	-1.72
O=C(Cc1ccc(Cl)cc1)Nc1ccc(NC(=O)c2cccs2)cc1	i	0.54
CC(C)(C)c1cc(NC(=O)c2ccco2)n(-c2ccccc2)n1	i	-0.48
Cc1cccc(C)c1OCc1cc(C(=O)NCc2cn(C)nc2C)no1	i	0.55
COCCCNC(=O)c1c(N)n(-c2ccc3c(c2)OCO3)c2nc3ccccc3nc12	i	0.34
Cc1ccc(CCNC(=O)c2nn(C)c3c2CS(=O)(=O)c2ccccc2-3)cc1	i	-0.62
COc1ccc(CCN(C)C(=O)c2cc(=O)c3ccccc3o2)cc1OC	i	-2.08
CCCCC(=O)Nc1cccc(NC(=O)c2cccc([N+](=O)[O-])c2)c1	i	-1
CC(=O)NCCn1c(SCc2ccc(C)cc2C)nc2ccccc2c1=O	i	-1.03
Cc1ccc(S(=O)(=O)c2cc3c(=O)n4ccccc4nc3n(C3CCCC3)c2=N)cc1	i	1.01
O=C(Cn1nnc(-c2ccccc2)n1)N1CCN(S(=O)(=O)c2ccc(Cl)cc2)CC1	i	0.38
CC(C)CN(C(=O)COC(=O)C1=COCCO1)c1c(N)n(Cc2ccccc2)c(=O)[nH]c1=O	i	-1.04
O=C(O)C1C2CC2CN1C(=O)c1ccc(Cl)cc1 (stereo not drawn)	i	-0.09
S=c1[nH]nc(-c2ccccn2)n1/N=C/c1ccc(Cl)c(Cl)c1	i	-0.13
CC1=CSC2=NC(=O)/C(=C\c3cccn3-c3ccc([N+](=O)[O-])cc3)C(=N)N12	i	-1.52
Cc1cc(C)c(NC(=O)/C(=C/c2ccccc2)c2ccccc2)c(C)c1	-7.48*	-1.21*
CC(c1nc2ccccc2c(=O)[nH]1)N1CCOCC1 (stereo not drawn)	i	-0.82
CC(C)CC(OC(=O)c1nsc(Cl)c1Cl)C(=O)NCc1cccs1 (stereo not drawn)	i	0.65
Cc1sc2nc(CC(=O)NN)[nH]c(=O)c2c1C	i	0.07
CCOC(=O)c1sc(/N=C/N(C)C)nc1C	i	-0.22
CC[C@@]12C(=O)N(c3cccc(F)c3)C(=O)N1[C@H](c1ccc(Br)cc1)[C@@H]1C(=O)N(C(C)(C)C)C(=O)[C@@H]12	i	-3.52
COc1ccc(-c2cc(=O)oc3cc(OCC(=O)Nc4ccc(CCO)cc4)ccc23)cc1	i	-0.77
COc1ccc(-n2nc(C(=O)Nc3nc4ccc(OC)cc4s3)c3ccccc3c2=O)cc1	i	-0.12
c1ccc(COc2ccc(OCCCNC3CCCC3)cc2)cc1	i	-0.28
NC(=O)C1CCN(Cc2ccc(OCc3ccccc3)cc2)CC1	i	-0.02
COc1ccc(CN(CCCN2CCOCC2)C(=O)Nc2cccc(Cl)c2)cc1OC	i	-0.42
COc1ccc(C(=O)N(Cc2ccco2)C(C(=O)NC2CCCC2)c2ccc(O)cc2)cc1OC (stereo not drawn)	i	-1.84
O=CN1Cc2[nH]c3ccccc3c2N(c2ccc(Cl)cc2)C1=O	i	0.15
O=C(NCc1cccnc1)C1c2ccccc2C(=O)N1C1CCCCCCC1 (stereo not drawn)	i	1.77
Cc1cc(C)nc(SCNC(=O)c2ccccc2)n1	i	1.13
Cc1cc(C(=O)O)c(CSc2ncn[nH]2)o1	i	-1.07
Cc1ccc2[nH]c(C)c(CCNC(=O)NC3CCCCC3)c2c1	i	-1.31
Cc1cc(NC(=O)CSc2nnc3c4c(C)c(C)sc4ncn23)no1	i	-1.2
Cc1ccnc(NC(=O)c2ccccc2NC(=O)C(C)(C)C)c1	i	1.89
C=CS(=O)(=O)c1sc(Cl)c(N2CCOCC2)c1[N+](=O)[O-]	-6.79*	-5.03*
N/C(Cc1cccc2ccccc12)=N\OC(=O)COc1ccccc1	i	-0.19

Part of the list above, with two lines to a compound.
Results follow in this order: KCNQ2 block	KCNQ2 block baseline
> Cc1ccc2[nH]c(C)c(CCNC(=O)NC3CCCCC3)c2c1
→ i	-1.31
> Cc1cc(NC(=O)CSc2nnc3c4c(C)c(C)sc4ncn23)no1
→ i	-1.2
> Cc1ccnc(NC(=O)c2ccccc2NC(=O)C(C)(C)C)c1
→ i	1.89
> C=CS(=O)(=O)c1sc(Cl)c(N2CCOCC2)c1[N+](=O)[O-]
→ -6.79*	-5.03*
> N/C(Cc1cccc2ccccc12)=N\OC(=O)COc1ccccc1
→ i	-0.19

(list continues)
SMILES	KCNQ2 block	KCNQ2 block baseline
Cc1onc(-c2c(Cl)cccc2Cl)c1-c1nnc(-c2ccc(Cl)cc2)o1	i	-0.48
CCOc1ccc(NC(=O)NNC(=O)c2cccnc2)cc1	i	1.27
CCOC(=O)CC1C(=O)NCCN1S(=O)(=O)c1ccc(Br)cc1 (stereo not drawn)	i	-0.03
O=P(C1=C(N2CCOCC2)/C(=C\c2ccccc2)CC1)(N1CCOCC1)N1CCOCC1	i	0.27
COc1ccc(C(=O)Nc2ccc(O)c3c(=O)cc(-c4cccc(Cl)c4)oc23)cc1	i	-0.71
CCCn1c(N)c(C(c2ccc(OC)cc2)N2CCN(c3ccccc3)CC2)c(=O)[nH]c1=O (stereo not drawn)	i	-0.22
CCOC(=O)C(Oc1ccc2c(-c3ccccc3)cc(=O)oc2c1C)c1ccccc1 (stereo not drawn)	i	-1.18
CCN(CC)CCN1C(=O)C(=O)/C(=C(/O)c2cccc(OC)c2)C1c1ccccn1 (stereo not drawn)	i	0.16
CCOc1cc(C2C(C#N)=C(N)OC3=C2C(=O)CC(C)(C)C3)cc([N+](=O)[O-])c1O (stereo not drawn)	i	-0.91
Cc1ccc(/C=C/C(=O)c2cc(Br)ccc2OC(=O)c2ccco2)cc1	i	-0.3
N#CC(c1ccc(O)cc1)N1CCOCC1 (stereo not drawn)	i	2.08
O=C(Nc1ccc(Cl)cc1Cl)NC1CCN(S(=O)(=O)c2ccc(F)cc2)CC1	i	-2.37
Cc1c(NC(=O)CN2C(=O)c3ccc([N+](=O)[O-])cc3C2=O)c(=O)n(-c2ccccc2)n1C	i	1.36
CCN(CC)C(=O)c1sc2nc(-c3cccs3)cc(-c3cccs3)c2c1N	i	0.07
CCCOc1ccc(Cc2c(Cl)nc(SC)nc2N(C)C)cc1	i	-1.3
COc1ccccc1CN1CC(C(=O)N(C)CCc2nc3ccc(F)cc3[nH]2)CCC1=O (stereo not drawn)	i	-0.08
OC(CON=C1c2ccccc2-c2ccccc21)CN1CCNCC1 (stereo not drawn)	i	0.55
O=C(O)CC1(CC(=O)Nc2ccc(Br)cc2)CCCCC1	-7.58*	-0.87*
O=C(Nc1ccc(NC(=O)c2ccco2)c(Cl)c1)c1cccc([N+](=O)[O-])c1	i	2.11
Cc1ccc(NC(=O)CS(=O)c2ccccc2N)c(C)c1 (stereo not drawn)	i	-2.19
CCOC(=O)C(=Cc1ccc(-c2ccsc2C(=O)OC)o1)C(=O)OCC	i	-0.74
CSc1ccc(S(=O)(=O)NCc2ccccc2Cl)cc1	i	-0.13
CCc1nnc(NC(=O)c2cc3c(s2)CCCCC3)s1	i	1.97
CC1(C)CC(=O)C=C(c2ccc3[nH]ccc3c2)C1	i	-1.56
O=C(CSc1cn(CCNC(=O)c2cccs2)c2ccccc12)NCc1ccccc1	i	0.59
C/C(CC(=O)Nc1cc(C)ccn1)=N\NC(=O)c1cccc(C)c1	i	-1.85
COc1ccc(S(=O)(=O)N2CCOCC2)cc1NC(=O)CSc1n[nH]c(C(C)C)n1	i	0.01
COc1ccccc1CN=C1Nc2ccccc2CS1	i	-0.45
O=C1N=c2ccccc2=C1c1sc(=O)[nH]c1O	i	0.97
Cc1cc(C)cc(N(CC(=O)NCC2CCCO2)C(=O)CN2C(=O)COc3ccccc32)c1 (stereo not drawn)	i	1.39
COC(=O)CCCC1=CC2=C(c3ccccc3)C(=O)C(C)(OC(=O)C3CCCC3)C(=O)C2=CN1C1CCCCC1 (stereo not drawn)	i	2.99
O=C(COC(=O)c1ccc(O)cc1O)Nc1ccc(Cl)cn1	i	-0.32
CCCn1c(N/N=C\C=C\c2ccccc2)nc2c1c(=O)[nH]c(=O)n2C	i	-2.32
CCN(CC)CCC(=O)N1c2ccccc2CCc2ccc(NC(=O)OC(C)C)cc21	i	-0.62
Cc1ccc(OCCC(=O)N(CC(=O)Nc2ccccc2C(F)(F)F)Cc2ccco2)cc1	i	0.37
Cc1c(CN2CCC(CO)(CCOc3ccccc3)CC2)[nH]c2ccc(Cl)cc12	i	0.41

Reformatted: 2 of the compounds above
KCNQ2 block	KCNQ2 block baseline	Structure
i	-2.32	CCCn1c(N/N=C\C=C\c2ccccc2)nc2c1c(=O)[nH]c(=O)n2C
i	-0.62	CCN(CC)CCC(=O)N1c2ccccc2CCc2ccc(NC(=O)OC(C)C)cc21

Carrying on.
SMILES	KCNQ2 block	KCNQ2 block baseline
CCn1ccnc1C(O)(c1ccccc1)c1ccccc1	i	-1.49
Cn1cccc1C(=O)NC(=O)COC(=O)CC12CC3CC(CC(C3)C1)C2	i	-2.27
CS(=O)(=O)N1CCN=C1SCc1ccc(Br)cc1	i	-2.25
CC(C)(C)C(=O)N1CCN(c2nc3ccc(Cl)cc3s2)CC1	i	1.77
O=C(CCSCCc1ccccn1)Nc1ccc(Br)cc1F	i	5.43
COCc1cc(Sc2cccc(Cl)c2Cl)nc(-c2ccccc2)n1	i	0.1
COC(=O)c1ccc(C(=O)N2CCCC(Nc3ccc(F)c(F)c3)C2)cc1 (stereo not drawn)	i	-0.51
CCC(C)c1ccc(NC(=S)NC2CCN(Cc3ccccc3)CC2)cc1 (stereo not drawn)	i	0.23
O=C(NCCc1ccccc1)/C(=C\c1ccc([N+](=O)[O-])cc1)NC(=O)c1ccc(Br)cc1	i	-0.8
CN1CCN(CC(O)(c2ccc(Cl)cc2)c2ccc(Cl)cc2)CC1	i	-0.67
C=CCN1C=CC(=C/C=C(/C#N)C(=O)OCC)C=C1	i	21.9
COc1ccc(Cl)cc1C(=O)NNC(=O)c1csc(N2CCOCC2)n1	i	0.18
COc1ccc(S(=O)(=O)N2CCC(C(=O)N3CCCC3)CC2)cc1C	i	-0.72
CCC(=O)N1N=C(c2ccc(NS(C)(=O)=O)cc2)CC1c1ccc(N(C)C)cc1 (stereo not drawn)	i	-0.42
O=C(NCc1cccs1)c1cccnc1C(=O)O	i	-0.04
O=C(COC(=O)c1ccccc1C(=O)c1ccccc1)NCc1ccc(F)cc1	i	1.3
O=C(CCNC(=O)Cn1ccc2ccccc2c1=O)NCCN1CCN(c2ccccc2F)CC1	i	-0.84
COc1ccc(-c2csc(NC(=O)c3ccco3)n2)cc1	i	-0.27
Oc1ccccc1C1CCCCC1c1ccccc1 (stereo not drawn)	i	0.2
Cn1c(/C=C/c2ccc(Br)cc2)nc2ccccc2c1=O	i	1.38
Cc1ccc(C(=O)NCc2ccc(Cl)cc2)o1	i	-0.04
O=C(/C=C/c1ccc(Cl)cc1)Nc1nccs1	i	0.03
CCCCNC(=S)Nc1cc(S(=O)(=O)N2CCCCC2)ccc1C	i	1.47
Clc1cccc(Cl)c1/C=N\Nc1nccs1	i	-0.27
O=C(O)c1ccc(-n2nncc2-c2ccccc2)cc1	i	-1.59
CCOc1ccc(Nc2cc(C)c3ccccc3n2)cc1	i	0.7
O=C(OCC(O)CN1CCCCC1)C12CC3CC(CC(C3)C1)C2 (stereo not drawn)	i	-0.37
O=C(OCC(=O)c1ccc(Cl)cc1Cl)c1cnccn1	i	1.1
COc1ccc(-c2nc(CS(=O)CC(=O)NCc3ccccn3)c(C)o2)cc1 (stereo not drawn)	i	1.11
CCOC(=O)C1CCCN(c2c(NCCCN(CC)c3cccc(C)c3)c(=O)c2=O)C1 (stereo not drawn)	i	-1.81
O=C(Nc1ccccc1)c1ccc2nc(-c3ccco3)c(-c3ccco3)nc2c1	-6.49*	-2.41*
O=C(COc1ccc2c(c1)OCO2)NC12CC3CC(CC(C3)C1)C2	i	0.07
COC(=O)NCCOC(=O)N(O)c1ccc(Br)cc1	i	1.56
